Source: PubChem BioAssay
RE007 growth inh – less growth of the S. pombe RE007 Vpr strain. S. pombe RE007 Vpr strain, BacTiter-Glo ATP luminescence, 24 h; control for the full effect not named in the record. Potency, µM (highest dose often 92.2 µM), for inactives: top-dose activity change, negative = less growth. 360,000 tested, 0.21% active; active = well fitted falling curve with a large enough effect; inconclusive = small, poorly fitted or top-dose-only effect; inactive = no such curve, though single readings can be large or run the other way;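 note: % is set by controls: 0 for no effect and ±100 for the full control effect; nearly all actives have a fitted effect of over 50% in size; the assay follows cell death caused by Vpr and the record does not say whether a fall means rescue or toxicity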
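Fission yeast RE007 carrying one integrated HIV-1 vpr copy, seeded at OD 0.01 in PMG+AL medium with 23 nL pinned compound. Grown 24 h at 30 degrees; viability read by BacTiter-Glo luminescence after 5 min.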
MARV entry inh – inhibitors of Marburg virus binding or cell entry | Potency, µM (highest dose often 37.8 µM), for inactives: top-dose activity change, negative = inhibition, actives largely listed as inhibitors | Marburg virus pseudotyped entry inhibition, cell reporter; control for the full effect not named in the record; about a third of the inactives were read at about 46 µM | 300,000 tested, 1.8% active | AID 540276; active = well fitted inhibition curve with a large enough effect; inconclusive = small, poorly fitted or top-dose-only effect, or effect the other way; inactive = flat fitted curve, though single readings scatter; tested in HEK293 cells; about a fifth of its hits are not listed in these tables; note: % is set by controls: 0 for no effect and ±100 for the full control effect; luciferase read-out
SARS PLpro yeast – blocks SARS-CoV papain-like protease in a yeast assay; S. cerevisiae expressing SARS-CoV PLpro, growth rescue; control for the full effect not named in the record; Potency, µM (series often up to 32.9 µM), inactives show top-dose activity, positive = growth rescue; 330,000 tested, 0.19% active; active means well fitted rising curve with a large enough effect; inconclusive means small, poorly fitted or top-dose-only effect; inactive means no such curve, though single readings can be large or run the other way; note: 0% is about no effect; nearly all actives have a fitted effect of over 55% in size; growth read by luminescence after 48 h
StopGo reporter – FMDV 2A StopGo reporter, luciferase signal | AID 1159524 | human cells with a luciferase reporter of 2A StopGo recoding; control for the full effect not named in the record | Potency, µM (series often up to 57.9 µM), for the others: top-dose signal change, negative = less light | 410,000 tested, 1.2% active; active = well fitted falling curve with a large enough effect; inconclusive = small, poorly fitted or top-dose-only effect; inactive = no such curve, though single readings can be large or run the other way; tested in HEK293T cells; note: % is set by controls: 0 for no effect and ±100 for the full control effect; nearly all actives have a fitted effect of over 45% in size; luciferase light after 4 h
Cruzain inh noDet – inhibitors of Trypanosoma cruzi cruzain without detergent | AID 1476 | purified cruzain, Z-FR-AMC fluorescence, no detergent | Potency, µM, without a hit: max response, negative = inhibition, most hits filed as inhibitors | 200,000 tested, 2.3% active | P25779;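 note: plate controls were enzyme without inhibitor for no effect and buffer without enzyme for full effect; nearly all actives have a fitted effect of over 40% in size; top concentration of the series not given in the record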
Target sequence (P25779 123-467 limits assumed): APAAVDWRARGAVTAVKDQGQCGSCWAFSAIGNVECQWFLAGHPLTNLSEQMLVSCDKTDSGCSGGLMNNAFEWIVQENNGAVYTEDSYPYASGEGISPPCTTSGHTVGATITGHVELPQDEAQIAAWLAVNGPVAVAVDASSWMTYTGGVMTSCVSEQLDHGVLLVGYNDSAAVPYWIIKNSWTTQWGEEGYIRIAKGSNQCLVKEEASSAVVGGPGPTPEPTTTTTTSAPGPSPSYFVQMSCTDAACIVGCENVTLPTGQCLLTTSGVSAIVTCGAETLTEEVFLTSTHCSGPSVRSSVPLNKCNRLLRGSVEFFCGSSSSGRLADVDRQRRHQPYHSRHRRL
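Detergent-free condition (0.00005% Triton X-100) in acetate buffer pH 5.5 with DTT. 1.5 nM enzyme and compound were pre-mixed 15 min, then 2 uM Z-FR-AMC substrate added; reaction progress from fluorescence change between first and third reads (60 s).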
Cruzain Triton – inhibitors of Trypanosoma cruzi cruzain with detergent | Potency, µM, without a hit: max response, negative = inhibition, most hits filed as inhibitors | purified cruzain, Z-FR-AMC fluorescence, 0.01% Triton | 200,000 tested, 0.43% active | P25779;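 note: plate controls were neutral wells for no effect and buffer without enzyme for full effect; nearly all actives have a fitted effect of over 40% in size; top concentration of the series not given in the record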
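Sodium acetate buffer (100 mM, pH 5.5) containing 5 mM DTT and 0.01% Triton X-100 hosted 1.5 nM cruzain and test compound for 15 min at room temperature. Cleavage of 2 uM Z-FR-AMC was then tracked by fluorescence.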
NS1 inh – influenza NS1 inhibition. S. cerevisiae slowed by influenza A NS1, growth recovery by OD600. 270,000 tested, 0.4% active. Potency, µM (series often up to 46.1 µM), without a hit: at the highest dose activity, positive = more growth; active means well fitted rising curve with a large enough effect; inconclusive means small, poorly fitted or top-dose-only effect; inactive means no such curve, though single readings can be large or run the other way; note: nearly all actives have a fitted effect of over 50% in size
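OD600 was taken as the measure of yeast growth restored by compound in an NS1-expressing S. cerevisiae strain. Cells had been washed out of glucose medium and diluted 1:100 into galactose -URA medium, pH 6.0.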
LASV entry inh – Lassa virus entry inhibition; Lassa virus pseudotype entry inhibition, cell reporter; control for the full effect not named in the record; Potency, µM (titrated, usually from 37.9 µM), for inactives: at the highest dose activity change, negative = inhibition, usual class: inhibitors; 300,000 tested, 1.2% active; AID 540256; active means well fitted inhibition curve with a large enough effect; inconclusive means small, poorly fitted or top-dose-only effect, or effect the other way; inactive means flat fitted curve, though single readings scatter; tested in HEK293 cells; note: % is set by controls: 0 for no effect and ±100 for the full control effect; nearly all actives have a fitted effect of over 50% in size; luciferase read-out
The depositor's hits bear a star; ? = inconclusive; . = not tested or not shown; & = joins results of further samples; [ ] = another dose, or the depositor's remark. Unless noted, calls come from the whole dose curve; as a rule, active = well fitted curve in the direction sought with a large enough effect; inconclusive = small, poorly fitted or top-dose-only effect, or another doubt; inactive = no such curve, though single readings can be large; an effect the other way counts as inactive or inconclusive. Potency is the fitted concentration of half-maximal effect. The order is random (roughly 4.7% active in at least one column).

no.	smiles	RE007 growth inh	MARV entry inh	SARS PLpro yeast	StopGo reporter	Cruzain inh noDet	Cruzain Triton	NS1 inh	LASV entry inh
1	COc1ccc(N2CCN(CC(=O)Nc3nnc(-c4ccccc4)s3)CC2)cc1	6%	1%	-7%	23%	25µM*	0.6%	8%	0%
2	CC(C)CNC(=S)N(CCN(C)C)Cc1cc2cc3c(cc2[nH]c1=O)OCO3	94%	6%[46.1 µM]	-2%	-16%	.	.	1%	?
3	CCC(C)NCCCOc1ccc([N+](=O)[O-])cc1 (stereo not given)	.	?	5%	-11%	-5%	-6.5%	0%	-13%
4	O=C(c1cccs1)N1CCN(C2CCCCC2)CC1	-1%	30%	4%	-15%	-3%	3.8%	-3%	-26%
5	Cc1ccc(CN2C(=O)SC(Nc3ccccc3)C2=O)cc1 (stereo not given)	.	18%[46.1 µM]	.	-19%	-6%	-9.9%	.	1%[46.1 µM]
6	Cc1cc(S(=O)(=O)NCC(C)C)ccc1OCC(=O)NC1CC1	10%	10%	1%	40%[activator]	.	.	7%	0%
7	COc1ccc(S(=O)(=O)NCC2CCCN(Cc3cn(C)nc3C)C2)cc1 (stereo not given)	2%	-8%[46.1 µM]	-1%	10%	.	.	0%	14%[46.1 µM]
8	O=C(Nc1ccccc1)Nc1cccn(Cc2c(F)cccc2Cl)c1=O	-6%	?	-2%	9%	.	.	-2%	?
9	COc1ccc2nc3ccccc3nc2c1	?	.	-15%	37%[activator]	.	.	-36%	.
10	CCOc1cc(C(=O)NCc2ccco2)cc(OCC)c1OCC	14%	.	-10%	7%	.	.	0%	.
11	COc1cccc(C(=O)OCCN2C(=O)c3ccccc3C2=O)c1OC	2%	-2%	0%	10%	-4%	-1.9%	-28%	14%
12	Cc1cccc(C(=O)Nc2ccnc(-c3cccnc3)n2)c1	4%	.	-1%	-28%	.	.	3%	.
13	CCc1ccccc1NC(=O)c1cc(C)no1	-9%	.	0%	-10%	.	.	-4%	.
14	O=C(c1ccc2c(c1)CCCC2)N1CCN(c2nc3c(F)cccc3s2)CC1	.	.	.	-8%	2%	-0.2%	.	1%[46.1 µM]
15	CC(C)Cn1c(SCC(=O)Nc2ccc3[nH]c(=O)[nH]c3c2)nc2ccccc2c1=O	-13%	-25%[46.1 µM]	-5%	16%	.	.	.	4%
16	COc1ccc(S(=O)(=O)NCc2cccn2Cc2cccc(C)c2)cc1OC	.	.	.	65%[activator]	2%	-6.4%	.	7%[46.1 µM]
17	Cc1ccc(CN2CCN(CC(C)C)C(CCO)C2)s1 (stereo not given)	-1%	?	-1%	61%[activator]	.	.	-3%	?
18	O=C(NNc1ccc(F)cc1F)C1CCC1	116%	?	0%	-3%	.	.	6%	14%
19	COC(=O)c1c(NC(C)=O)sc2c1CCCC2	-28%	5%	-8%	1%	5%	-1.1%	-99%	1%
20	Cn1c2c(c(=O)n(C)c1=O)CN(CCc1ccccc1)CN2	6%	?	-5%	-22%	6%	-3.2%	7%	-6%

Compound profiles, as listed above. Order of values: RE007 growth inh, MARV entry inh, SARS PLpro yeast, StopGo reporter, Cruzain inh noDet, Cruzain Triton, NS1 inh, LASV entry inh
`Cc1ccc(CN2C(=O)SC(Nc3ccccc3)C2=O)cc1` (stereo not given) is entered as ., 18%[46.1 µM], ., -19%, -6%, -9.9%, ., 1%[46.1 µM]
`Cc1cc(S(=O)(=O)NCC(C)C)ccc1OCC(=O)NC1CC1` is entered as 10%, 10%, 1%, 40%[activator], ., ., 7%, 0%
`O=C(Nc1ccccc1)Nc1cccn(Cc2c(F)cccc2Cl)c1=O` is entered as -6%, ?, -2%, 9%, ., ., -2%, ?

Further structures follow.
no.	smiles	RE007 growth inh	MARV entry inh	SARS PLpro yeast	StopGo reporter	Cruzain inh noDet	Cruzain Triton	NS1 inh	LASV entry inh
21	O=C(OCC(=O)c1c[nH]c2ccccc12)c1cc2ccccc2cc1O	-5%	?	25%	-16%	?	-6.7%	?	?
22	C/C(=N\N1C(=O)c2ccccc2C1=O)c1cccc([N+](=O)[O-])c1	-14%	9%	-3%	-3%	0%	-2.6%	2%	-19%
23	CCN(CC)Cc1nc2c(c(=O)[nH]1)C1(CCCCC1)Cc1ccccc1-2	2%	-9%	1%	11%	-9%	-3.1%	1%	?
24	CC(=O)c1ccc(N2C(=O)N(CC(=O)c3ccc(F)cc3)c3ccccc3S2(=O)=O)cc1	.	.	.	8%	-12%	-0.1%	.	-23%[46.1 µM]
25	COc1ccc(N(CC(=O)NC2CC2)S(=O)(=O)c2ccccc2)cc1	1%	6%[46.1 µM]	3%	-8%	.	.	9%	8%
26	O=C(CCC(=O)c1cccs1)NCCc1ccc(F)cc1	0%	-28%	-4%	-12%	.	.	.	-21%
27	CC(=O)Nc1sc(NC(=O)c2ccc([N+](=O)[O-])cc2)nc1-c1cccs1	-12%	.	0%	-29%	.	.	-3%	.
28	COCCn1c(-c2ccc(NC(C)=O)cc2)nc2c1c(=O)[nH]c(=O)n2CC(C)C	-10%	0%	0%	1%	.	.	-2%	?
29	CCn1c(CCCNC(=O)c2ccco2)nc2ccccc21	-10%	9%[46.1 µM]	-2%	-8%	.	.	?	.
30	C/C(Cl)=C\Cn1c(N2CCCC2)nc2c1c(=O)n(C)c(=O)n2C	10%	?	0%	?	.	.	-1%	?
31	NC(=S)Nc1ccc(S(=O)(=O)c2ccc(NC(N)=S)cc2)cc1	-6%	?	0%	22%	.	.	13%	10%
32	O=C(CCc1ccccc1)NC1(Cc2ccccc2)CCN(CCc2cccs2)C1=O (stereo not given)	-15%	2%	-2%	-9%	.	.	.	.
33	O=C(c1ccc(Cl)c(Cl)c1)c1cnc(Nc2ccccc2)s1	15%	-7%	-3%	23%	20µM*	4.8%	-7%	?
34	COc1cc(Nc2ccc(S(N)(=O)=O)cc2)c([N+](=O)[O-])nc1[N+](=O)[O-]	-5%	.	0%	-3%	.	.	4%	.
35	C=CCn1c(=O)c(C(=O)NCCc2ccc(Cl)cc2)c(O)c2cc(OC)c(OC)cc21	-9%	.	1%	3%	.	.	-1%	.
36	COc1ccc(NC(=O)CN(C)C(=O)c2ccccc2Sc2ncnc3sc(C)c(C)c23)cc1	-11%	?	10%	0%	.	.	.	9%
37	O=C(NCc1ccc(F)cc1)C1CCN(S(=O)(=O)c2ccc3c(c2)CCCN3C(=O)C2CCC2)CC1	.	.	.	-24%	17%	-2.4%	.	?
38	CCOC(=O)C1CCN(C(=O)CCn2c(=O)[nH]c3ccccc3c2=O)CC1	12%	4%	1%	13%	-2%	2.8%	1%	14%
39	OCCNc1nc(-c2ccccc2)nc2ccccc12	-5%	-1%[46.1 µM]	-3%	-21%	.	.	.	-25%
40	CCN1CCN(CCCN(Cc2ccco2)C(=S)Nc2ccc(Cl)cc2)CC1	0%	?	-2%	5%	.	.	-4%	.
41	Cn1c(=O)c2c(ncn2CCCC(=N)N2CCOCC2)n(C)c1=O	-4%	5%[46.1 µM]	0%	-1%	.	.	1%	11%
42	COc1ccc(CCN2C(=O)c3cccnc3C2=O)cc1OC	31%	-10%[46.1 µM]	3%	4%	-5%	2.2%	-16%	6%
43	O=C(CSc1ccccn1)Nc1ccc2c(c1)oc1ccccc12	-2%	?	-11%	36%[activator]	-3%	-9.8%	-14%	17%
44	CCOC(=O)c1ccc(-n2c(CCC(=O)O)ccc2-c2cccs2)cc1	?	4%[46.1 µM]	-2%	-2%	.	.	.	-17%
45	CC12CCC(=O)N1C(C(=O)N1CCN(S(=O)(=O)c3ccccc3F)CC1)CS2 (stereo not given)	-12%	14%[46.1 µM]	0%	6%	.	.	.	1%
46	COc1cc(Cl)c(C)cc1NC(=O)CSc1nnc(-c2cccnc2)n1Cc1ccco1	1%	-6%&-6%	2%	-28%	?	-8.9%	-13%	-1%
47	COCC(=O)N/N=C\c1ccc(OC/C=C/c2ccccc2)c(OC)c1	12%	-28%	-2%	-9%	.	.	-41%	?
48	O=C(CCC1COc2ccccc2O1)Nc1ccccn1 (stereo not given)	-17%	14%	-3%	-20%	-21%	1.7%	-5%	-14%
49	CC1CCN(C(=O)c2cnn(-c3cccc(Cl)c3)c2C2CCN(C(=O)OC(C)(C)C)CC2)CC1	.	.	.	-12%	0%	0.5%	.	?
50	O=C(COc1ccccc1)Nc1ccc(-c2ccc(N3CCOCC3)nn2)cc1	?	-15%	0%	25%	.	.	.	14%
51	Cc1ccc(C(=O)CSc2ncnc3ccccc23)o1	-14%	?	-1%	8%	.	.	.	?
52	Cc1c(NC(=O)/C(C#N)=C/c2c(N3CCCCC3)nc3ccccn3c2=O)c(=O)n(-c2ccccc2)n1C	14%	.	0%	-2%	.	.	0%	.
53	CCc1nn(-c2cc(Oc3cccc4ccccc34)nc(-c3ccccc3)n2)c(N)c1C#N	2%	8%	0%	-2%	-8%	2.6%	8%	2%
54	Cc1cccc(C)c1NC(=O)C1(N2CCN(C(=O)c3ccco3)CC2)CCCCC1	10%	?	1%	-24%	?	-3.0%	-10%	-9%&-5%
55	CC(C)C[C@H](NC(=O)c1nc[nH]c1C(=O)NC(c1ccccc1)c1ccccc1)C(=O)OCc1ccccc1	8%	.	1%	0%	.	.	?	.
56	CCc1ccccc1Nc1cc(C(=O)NCCCN(C)C2CCCCC2)c2ccccc2n1	.	?	.	5%	-14%	-12%	.	?
57	Cc1ccc(N2CCN(S(=O)(=O)c3ccc(C)cc3)CC2)cc1	8%	1%	6%	-7%	.	.	-4%	?
